# PINK1 modulator: changes PINK1 expression | PINK1 immunofluorescence, high-content cytometry, 24 h | Potency, µM (series often up to 76.6 µM), for the others: top-dose activation (PINK1 increase), actives largely listed as activators | 410,000 tested, 0.2% active; active = well fitted activation curve with a large enough effect; inconclusive = small, poorly fitted or top-dose-only effect; inactive = flat fitted curve, though single readings scatter; cell line not stated here;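 further: potency means the concentration at half of the fitted maximal effect; % of control where 0% means no effect; nearly all actives have a fitted effect of over 65% in size; a mitochondrial uncoupler was the plate control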
#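 Stable cell line, 250 cells/well, 12 h attachment; compounds pinned at 5 concentrations, 24 h; CCCP control. Fixed with nuclear dye, primary antibodies 12 h at 10 degrees C, secondary plus cell stain; laser-scanning cytometer read.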
# Six1-Eya2 blk: inhibitors of human Six1/Eya2 interaction | Q15475+O00167 | AlphaScreen GST-Six1/His-Eya2 binding, biochemical; hits give low values; control for the full effect not named in the record | activity change, % (no concentration beside the values) | 360,000 tested, 0.56% active; in the data active = activity change below about -65%; inconclusive = about -30% to -65%; inactive = above about -30%; further: on the % scale 0 is the no-effect control and ±100 the full control effect; compound concentration not given in the record
# Target sequence (O00167 whole entry, looked up): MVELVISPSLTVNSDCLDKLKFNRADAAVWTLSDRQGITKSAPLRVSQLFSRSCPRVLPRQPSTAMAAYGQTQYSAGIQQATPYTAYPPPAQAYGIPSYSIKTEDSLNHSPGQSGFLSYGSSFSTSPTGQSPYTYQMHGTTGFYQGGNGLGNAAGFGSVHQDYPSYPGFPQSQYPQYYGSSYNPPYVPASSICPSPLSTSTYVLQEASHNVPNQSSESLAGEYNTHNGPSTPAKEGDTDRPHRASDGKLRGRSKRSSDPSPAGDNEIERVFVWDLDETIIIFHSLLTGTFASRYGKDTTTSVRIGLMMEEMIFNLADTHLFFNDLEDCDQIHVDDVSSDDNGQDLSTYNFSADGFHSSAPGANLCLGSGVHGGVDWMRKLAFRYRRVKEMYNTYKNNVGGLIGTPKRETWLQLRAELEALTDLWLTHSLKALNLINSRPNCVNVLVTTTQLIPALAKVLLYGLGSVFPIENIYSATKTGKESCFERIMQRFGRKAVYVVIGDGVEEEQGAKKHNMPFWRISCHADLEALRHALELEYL
# Target sequence (Q15475 whole entry, looked up): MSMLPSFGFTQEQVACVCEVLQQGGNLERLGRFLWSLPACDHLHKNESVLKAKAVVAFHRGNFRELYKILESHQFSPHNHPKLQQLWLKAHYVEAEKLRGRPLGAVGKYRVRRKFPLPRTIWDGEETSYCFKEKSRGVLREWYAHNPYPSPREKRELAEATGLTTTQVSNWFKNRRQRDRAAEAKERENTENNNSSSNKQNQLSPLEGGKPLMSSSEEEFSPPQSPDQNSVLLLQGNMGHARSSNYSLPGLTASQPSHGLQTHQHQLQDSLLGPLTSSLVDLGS
#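 GST-Six1 + His-Eya2 (5X stock: 250/500 nM); Tris pH 8.0, 300 mM NaCl, 0.05% BSA, 0.02% Tween 20; GSH donor/Ni acceptor beads; 1 h 37 °C dark; AlphaScreen readout.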
# D2 ag: human D2 receptor agonism in beta-arrestin assay; DiscoveRx PathHunter D2 beta-arrestin, luminescence, 90 min; 100% = 57 uM dopamine signal; AID 624465; 360,000 tested, 0.084% active; activation, % (no concentration beside the values); P14416; in the data active = activation above about 40%; inconclusive = about 15% to 40%; inactive = below about 15%; further: compound concentration not given in the record; the text of the record calls up to 30% inactive
#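 DiscoveRx PathHunter D2 beta-arrestin cells (2,100/well) attached overnight, then compound-stimulated 90 min at 37 C in HBSS/10 mM HEPES/0.1% Tween-20 buffer; beta-galactosidase complementation read by luminescence after 1 h at ambient temperature. Dopamine 57 uM final (EC100) as control.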
# D2 PAM: positive allosteric modulators of human D2 dopamine receptor. 360,000 tested, 0.23% active. AID 624464. DiscoveRx D2 beta-arrestin cells, luminescence, 90 min; 100% = 57 uM dopamine signal. potentiation, % (no concentration beside the values); active = potentiation of 50% or more; inconclusive = 30% to 50%; inactive = 30% or less;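 further: compound concentration not given in the record; tested on top of an EC20 dose of dopamine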
#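 PathHunter D2 cells, attached overnight at 37 deg C, received compound in DMSO plus dopamine at EC20 (50 nM final) for 90 min at 37 deg C. Beta-arrestin recruitment was read as luminescence after 1 h with detection reagent at ambient temperature.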
# TRPML1 blocker: human mucolipin-1 channel inhibition. Q9GZU1. TRPML1-inducible cells, Ca2+ dye fluorescence, FDSS; hits give low values; inhibition of EC80 agonist-evoked calcium signal. activity change, negative = inhibition, % (concentration not given with the values). 390,000 tested, 0.02% active. AID 624415; in the data active means activity change below about -50%; inconclusive means about -30% to -50%; inactive means above about -30%;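 further: stimulus is agonist 54-4 at its EC80 concentration; on the % scale 0 is the no-effect control and ±100 the full control effect; compound concentration not given in the record; the text of the record puts the active cut at -80%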
#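 Tet-induced TRPML1-DL cells loaded with Ca8 no-wash calcium dye were read kinetically on FDSS. Compound addition was followed by EC80 agonist 54-4 (4 uM final); inhibition was read over 110 s.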
# TRPML1 ag: activates the human TRPML1 channel | Q9GZU1 | 410,000 tested, 0.12% active | TRPML1-expressing cells, Ca2+ dye fluorescence, FDSS; host cell line not named in the record; reference of the full effect not given here | activation, % (test concentration not listed); in the data active = activation above about 50%; inconclusive = about 30% to 50%; inactive = below about 30%; further: 0% is about no effect; the text of the record puts the active cut at 80%
#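 Kinetic FDSS Ca2+ read in Tet-induced TRPML1-DL cells (ABD Ca8 dye plus quencher, 45-90 min RT loading): baseline, then compound, then 110 s agonist window; EC80 agonist 54-4 at 4uM final added afterwards for a 110 s antagonist window.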
# * hit, by the source's call; u = inconclusive; x = no result given; [ ] = dose if it differs, or a comment.
SMILES,PINK1 modulator,Six1-Eya2 blk,D2 ag,D2 PAM,TRPML1 blocker,TRPML1 ag
Cc1ccc2nc(SCC(=O)Nc3cc(C(C)(C)C)nn3-c3ccccc3)[nH]c2c1,7.4%,-4,-0.7,-2,13,1.6
COc1ccc(N2CCN(C(=O)C(=O)c3c(C)[nH]c4ccccc34)CC2)cc1,1.2%,-12,1.7,-7,2,0.4
Nc1ccn(CCCNCC(c2ccccc2)c2ccccc2)c(=O)n1,2.6%,5,-1.3,x,x,x
CS(=O)(=O)N(CC(=O)N1CCCC1)c1cccc(F)c1,-0.2%,-15,-4.8,-2,-11,-1.1
COC(=O)c1ccc(CNC(=O)COC(=O)c2ccccc2-c2ccccc2)cc1,0.6%,3,-3.7,-14,31,3.5
O=C/C(=C\Nc1ccc(C(=O)N2CCOCC2)cc1)c1nc2ccccc2o1,-0.7%,8,-1.5,-14,2,-0.2
CCN(CC)C(=O)c1ccc(S(=O)(=O)N2CCC(c3nc4ccccc4s3)CC2)cc1,5.4%[38.3 µM],1,-0.1,3,18,1.4
Cc1ccccc1NC(=O)C1CCN(S(=O)(=O)c2cccs2)CC1,-0.8%,9,-1.0,-2,-1,0.2
CSc1ncc(C(=O)Nc2ccc(C(C)=O)cc2)c(C)n1,0.4%,2,2.4,3,26,0.5
CN(CCOc1ccc(Cl)cc1)C(=O)c1ccc(S(=O)(=O)N2CCOCC2)cc1,1.4%,0,-3.1,-1,13,-0.2
CCOC(=O)Cn1nc(NC(=O)COc2ccc(F)cc2)cc1C,1.3%,-1,-3.4,-15,19,0.8
CC(=O)Nc1cccc(NC(=O)c2ccc(Br)cc2)c1,-1.5%,-3,-1.8,-12,-2,-0.4
Cc1c(C(=O)N(C)C)sc(NC(=O)c2cccc([N+](=O)[O-])c2)c1C#N,1.8%,1,-1.5,-2,6,1.7
CC1(C(=O)N2CC3(CC(c4ccccc4)=NO3)C[C@H]2C(=O)NCC(N)=O)CC1 (stereo partly specified),0.2%,-1,1.3,2,2,-0.7
CCOC(=O)c1nc(Nc2ccc(C)cc2)c2ccccc2n1,-1.3%,-13,-5.7,-7,22,1.3
COc1cc(C2NC(=O)NC(c3ccccc3)=C2C(C)=O)ccc1OCC#N (stereo unspecified),16%[38.3 µM],2,-1.6,2,70,0.6
CCN1C(=O)/C(=c2\o/c(=C3\C=Cc4ccccc4N3CC)c(=O)n2CC)SC1=S,x,-19,-1.2,4,10,0.3
CC(Oc1ccc(NC(=O)c2ccco2)cc1)C(=O)N1c2ccccc2CC1C (stereo unspecified),-2.1%,-3,-1.1,15,5,3.9
CC(C)(C)c1ccc(-n2nc(C(N)=O)c(O)cc2=O)cc1,1.0%,-10,8.3,-4,-22,1.4
Cn1ncc2c(N3CCN(c4ccc(F)cc4)CC3)ncnc21,0.6%,x,x,x,-9,-0.7
CCOc1cc(-c2c(C#N)c(N)nc3c2CCCC3C)ccc1O (stereo unspecified),4.4%,-6,8.5,1,13,1.4
CCOC(=O)c1nn(-c2cccc(C)c2)cc1C(=O)c1ccccc1,5.6%,10,-2.6,7,60,1.4
CCN(Cc1cc(OC)c(OC)c(OC)c1)C(=S)Nc1cccc(SC)c1,-2.2%,-6,0.6,-8,-2,0.1
Cc1nc(C)n(CC(=O)N2CCCC(C(=O)c3ccc(C(F)(F)F)cc3)C2)n1 (stereo unspecified),8.2%,6,5.0,0,1,0.0
O=C1CCCc2c1nc(-c1cccc(Cl)c1)n2O,-1.1%[38.3 µM],23,-5.5,-12,11,-0.4
COc1cc(OC)cc(C(=O)NC2CCSC2=O)c1 (stereo unspecified),0.3%,-2,-0.8,-11,-8,0.3
CCCCOCCCNC(=O)c1cccc(OC)c1,-1.0%,2,0.4,-9,-13,-0.3
CCOC(=O)C(NC(=O)c1cccc(Cl)c1)(OCc1ccccc1)C(F)(F)F (stereo unspecified),u,-7,-2.8,-8,5,1.8
COC(=O)c1cc(S(=O)(=O)NCc2ccc3c(c2)OCO3)c[nH]1,-0.4%,7,-7.4,-6,29,-0.9
Cc1ccc(NC(=O)CS(=O)(=O)c2cn(CC(=O)N3CCOCC3)c3ccccc23)cc1,2.9%,8,-3.7,-5,18,-0.3
O=C(NCCc1c[nH]c2ccccc12)C(=O)c1c[nH]c2ccccc12,0.9%,-25,0.4,-3,-2,0.8
Cc1ccccc1NC(=O)Cn1nnc(C(=O)NCCc2ccccc2)c1N,0.5%,x,x,x,-9,-1.5
COc1ccc(S(=O)(=O)Nc2ccc3c(c2)n(C)c(=O)n3C)cc1F,0.3%,-4,3.6,-4,34,1.6
COC(=O)C(CC(C)C)Oc1ccc2c(C)cc(=O)oc2c1 (stereo unspecified),-0.3%,7,-2.8,2,10,0.3
Cc1cc(C(F)(F)F)nn1-c1nc(-c2ccccc2)cc(C(F)(F)F)n1,3.2%,x,x,x,56,1.7
Cc1nn(C(C)C(=O)NCCCN2CCCCCC2)c(=O)c2cc3sccc3n12 (stereo unspecified),-0.1%,-1,-4.7,-33,6,0.9
COc1cc(OC)cc(C(=O)NC(c2ccccc2)c2ccccc2)c1,8.1%,4,-8.2,7,x,x
NNC(=O)c1ccc(Cn2cc(Br)c(N)n2)cc1,3.6%,14,-5.2,-3,9,-0.3
COc1ccc2c(CNCc3ccccc3OC)c(C(=O)O)n(Cc3ccc(F)cc3Cl)c2c1,-1.0%,x,x,x,-5,-0.1
CCOc1ccc(NC(=O)CN(C)C(=O)c2ccc(N3CCCCC3)c([N+](=O)[O-])c2)cc1OCC,0.2%,-24,-4.9,-6,20,1.4
CCN1CCN(CCCNC(=O)c2ccc3c(c2)NC(=O)/C(=C\c2cccc(C)c2)S3)CC1,-1.4%,5,2.5,-6,-7,-0.4
C=C(C)C1CC=C(C)/C(=N/NC(=S)Nc2ccccc2)C1 (stereo unspecified),1.3%,-9,-2.2,2,39,2.4
O=C(OCc1c(F)cccc1Cl)c1cccnc1Cl,1.0%,28,-1.7,-7,4,1.5
CN(Cc1ccccc1)S(=O)(=O)c1nnc(NC(=O)c2ccccc2F)s1,-0.5%,6,3.7,1,-9,0.8
COc1ccc(Nc2nc(C)cc(C)n2)cc1Cl,2.1%,3,2.0,-1,-1,2.2
Cc1cc(C)c2nc(-c3ccco3)cc(C(=O)O)c2c1,-0.6%,-16,2.0,-5,-9,-0.7
CCC(C)(C)NC(=O)Cn1c(-c2ccccc2)cc(C(C)=O)c1C,-0.8%,-6,0.7,-7,-13,1.0
O=C1NC[C@H](CCCCN2CCN(CCc3ccccc3)C(=O)C2=O)N(CCc2ccccc2)C1=O,1.4%,1,x,x,x,-0.6

# Six of the compounds above, with two lines to a compound.
# Order of values: PINK1 modulator, Six1-Eya2 blk, D2 ag, D2 PAM, TRPML1 blocker, TRPML1 ag
- COc1ccc2c(CNCc3ccccc3OC)c(C(=O)O)n(Cc3ccc(F)cc3Cl)c2c1
 : -1.0%, x, x, x, -5, -0.1
- CCOc1ccc(NC(=O)CN(C)C(=O)c2ccc(N3CCCCC3)c([N+](=O)[O-])c2)cc1OCC
 : 0.2%, -24, -4.9, -6, 20, 1.4
- CCN1CCN(CCCNC(=O)c2ccc3c(c2)NC(=O)/C(=C\c2cccc(C)c2)S3)CC1
 : -1.4%, 5, 2.5, -6, -7, -0.4
- C=C(C)C1CC=C(C)/C(=N/NC(=S)Nc2ccccc2)C1 (stereo unspecified)
 : 1.3%, -9, -2.2, 2, 39, 2.4
- O=C(OCc1c(F)cccc1Cl)c1cccnc1Cl
 : 1.0%, 28, -1.7, -7, 4, 1.5
- CN(Cc1ccccc1)S(=O)(=O)c1nnc(NC(=O)c2ccccc2F)s1
 : -0.5%, 6, 3.7, 1, -9, 0.8

# An excerpt from the list above, for reference:
SMILES,PINK1 modulator,Six1-Eya2 blk,D2 ag,D2 PAM,TRPML1 blocker,TRPML1 ag
Cc1cc(C)c2nc(-c3ccco3)cc(C(=O)O)c2c1,-0.6%,-16,2.0,-5,-9,-0.7
CCC(C)(C)NC(=O)Cn1c(-c2ccccc2)cc(C(C)=O)c1C,-0.8%,-6,0.7,-7,-13,1.0
O=C1NC[C@H](CCCCN2CCN(CCc3ccccc3)C(=O)C2=O)N(CCc2ccccc2)C1=O,1.4%,1,x,x,x,-0.6

# Additional entries:
SMILES,PINK1 modulator,Six1-Eya2 blk,D2 ag,D2 PAM,TRPML1 blocker,TRPML1 ag
CCC/C(C#Cc1ccsc1)=C1/c2ccccc2C(=O)N1c1ccccc1,-1.2%,-1,-2.4,-9,37,1.0
CCOC(=O)c1cnc2scnn2c1=O,0.0%,-6,0.1,-3,6,-0.2
O=C(NCc1ccccc1F)C1CCCN(c2cnccn2)C1 (stereo unspecified),-0.2%,-4,-0.9,-3,1,2.9
COc1cc(NC(=O)C2C3C=CC(C3)C2C(=O)O)ccc1NC(=O)c1ccccc1 (stereo unspecified),2.4%,0,-3.8,5,4,-0.4
COc1cccc(-c2nc(C(N)=O)c3[nH]c(=O)n(-c4cccc(Cl)c4)c3n2)c1OC,1.0%,3,-1.7,-4,-5,0.4
Cc1ccsc1-c1cc2nc(NCCOc3ccccc3Cl)n(C)c(=O)c2s1,5.5%,2,2.7,-6,x,-0.2
COc1ccc(/C=C/C(=O)Nc2cc(=O)n(C)c(=O)n2C)cc1,2.8%,-5,-0.6,-20,5,0.5
CS(=O)(=O)c1ccc(-c2cccc(NC(=O)COc3ccccc3)c2)nn1,7.2%,5,0.8,2,-4,-0.3
CCCS(=O)(=O)NC(=O)C1(C)CCN(C(=O)c2ccc(OC)cc2OC)C1 (stereo unspecified),-1.2%,1,-1.8,-9,x,-0.3
Cc1ccccc1SCC(=O)NNC(=O)c1ccccc1O,-0.2%,5,3.4,9,11,0.0
CCOc1ccc(Nc2c(S(=O)(=O)c3ccc(Cl)cc3)cnc3ccc(OCC)cc23)cc1,1.1%,x,x,x,-18,27
CNC(=S)NCc1ccc2[nH]c(C)cc2c1,-0.5%,-8,-2.0,-11,12,0.0
CC1CC(C)CN(C(=O)c2cccc3c2-c2ccccc2C3=O)C1 (stereo unspecified),-0.6%,-1,-2.1,-21,0,1.2
O=C(NCCc1ccccc1)C1CCCN1S(=O)(=O)c1cccc2nsnc12 (stereo unspecified),-1.4%,2,-1.7,-6,-10,-0.5
COc1ccccc1N1C(=O)[C@@H]2[C@H](C1=O)[C@H](C(=O)c1ccc(OC(C)=O)cc1)N1N=CC=C[C@@H]21,-0.7%,-19,-1.6,-16,55,-0.3
CCOC(=O)c1cnn(-c2ccccc2)c1NC(=O)c1ccc(C)cc1,-1.4%,8,-0.9,-6,13,0.8
Cc1nnsc1C(=O)Nc1ccc(Cl)cc1Cl,0.5%,5,-4.2,-9,-7,-0.4
O=C(CN1C(=O)c2ccccc2S1(=O)=O)c1ccccc1,0.7%,6,-8.6,-10,1,0.0
Cc1cccc(NC(=O)C(=O)NCC(c2cccnc2)N2CCc3ccccc3C2)c1C (stereo unspecified),2.4%,x,x,x,10,-1.0
